Bioassay records from PubChem.
A1 inhib: blocks A1 activity | hit rate 0.51% among 21,000 | AID 2241 | MEF A1-2A-BIM cells, caspase-Glo luminescence, 3 h; percent of clofoctol signal, DMSO as zero | caspase activation, % (test concentration not listed);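 active = most replicate scores above 10, or exactly half above 10 with mean activity above 10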;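 note: effector caspase 3 and 7 activity cleaving a DEVD luciferin substrate; 50 nL library stock added to about 30 µL; numbers are from one replicate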
BJeLR viability: BJeLR cell viability reduction; AID 2275; viability loss activity score, % (test concentration not listed); hit rate 0.64% among 30,000; BJeLR fibroblasts viability, CellTiterGlo ATP luminescence, 48 h; HRASV12, hTERT and SV40 LT/ST transformed; in the data active = viability loss activity score above about 50%; about a fifth of its hits are not listed in these tables;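 note: higher score means fewer live cells and less ATP luminescence; stock transfer was 50 or 100 nL into about 30 µL; 0% = vehicle wells and 100% = a reference killing control; one replicate is shown; the record names a cut of 85%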
An asterisk follows results filed as active; nt = not tested or not shown; & = joins results of further samples. This is a subset (hit frequency here may not be typical).

SMILES	A1 inhib	BJeLR viability
C=CCSc1nc2c(cnn2-c2ccc(C)c(C)c2)c(=O)[nH]1	nt	-6.8
CN(c1cccc2cccnc12)S(=O)(=O)c1ccccc1	0.8	-3.7
C[C@@H]1CN([C@@H](C)CO)C(=O)c2cccc(NC(=O)Nc3ccccc3)c2O[C@H]1CN(C)Cc1ccc(Cl)c(Cl)c1	nt	3.0
CC1CCCCN1S(=O)(=O)c1ccc(F)c(C(=O)Nc2c(F)cc(F)cc2Br)c1 (stereo not given)	0.2	1.0
CCSc1nc2c(c(=O)n1CC)C1(CCCC1)Cc1ccccc1-2	0.2	3.1
C[C@H](CO)N1C[C@H](C)[C@H](CN(C)Cc2ccc3c(c2)OCO3)Oc2ccc(NS(=O)(=O)c3ccc(Cl)cc3)cc2C1=O	-0.1	0.6
c1ccc(NCC2OCc3ccccc3CO2)cc1	-0.4	1.0
C[C@H]1CN([C@@H](C)CO)C(=O)c2cc(NC(=O)Nc3cccc4ccccc34)ccc2O[C@H]1CN(C)Cc1ccc2c(c1)OCO2	0.3	-5.7
C[C@H](CO)N1C[C@H](C)[C@H](CN(C)Cc2ccc(Oc3ccccc3)cc2)Oc2c(NC(=O)c3nc4ccccc4s3)cccc2C1=O	nt	-1.1
CC(C)S(=O)(=O)/C(C#N)=C/Nc1ncccn1	0.3	-4.2
COC(=O)Cc1[nH]n(-c2ccccc2)c(=O)c1C=Nc1ccc(C)cc1	0.4	1.8
CCn1cc(CCCC(=O)NCCC2=CCCCC2)c2ccccc21	-0.5	-4.3
C[C@@H]1CN([C@@H](C)CO)C(=O)c2cccc(NC(=O)C3CCCCC3)c2O[C@H]1CN(C)C(=O)Nc1ccccc1	nt	-2.5
COc1ccc(-n2ncc3c(NCCc4ccccc4)ncnc32)cc1	-0.9	5.2
C[C@H]1CN([C@@H](C)CO)C(=O)c2cccc(NS(C)(=O)=O)c2O[C@@H]1CN(C)Cc1ccc(C(F)(F)F)cc1	nt	0.8
COC(=O)c1cnn(C(=O)c2ccccc2Br)c1N	-0.4	5.3
Cn1c(=O)n(C)c2cc(CN3C(=O)c4ccccc4C3=O)ccc21	-0.8	0.7
Cc1ccc(S(=O)(=O)Nc2cccc3c2O[C@H](CN(C)C(=O)Nc2c(C)noc2C)[C@@H](C)CN([C@@H](C)CO)C3=O)cc1	nt	-1.1
O=C(NC12CC3CC(CC(C3)C1)C2)C1CCCN1S(=O)(=O)c1ccccc1 (stereo not given)	1.4	4.5
CC1CCN(Cc2ccc(NC(=O)Nc3cccs3)cc2)CC1	-0.7	6.8
CCOC(=O)c1[nH]c2ccc(OC)cc2c1N=C(C)N(C)C	1.4	-7.2
Cc1cc(=O)c2c(O)c3c(cc2o1)OC(C(C)(C)OC1OC(CO)C(O)C(O)C1O)C3 (stereo not given)	0.5	-3.9
CC(=O)N1CCc2cc(S(=O)(=O)NCCC(=O)N3CCc4ccccc43)ccc21	nt	-6.8
Cc1ccn2c(-c3nnco3)c(C)nc2c1	0.2	2.9

Three entries already listed, sorted by the value under A1 inhib, falling:
mol,A1 inhib
CC(C)S(=O)(=O)/C(C#N)=C/Nc1ncccn1,0.3
Cc1ccn2c(-c3nnco3)c(C)nc2c1,0.2
Cn1c(=O)n(C)c2cc(CN3C(=O)c4ccccc4C3=O)ccc21,-0.8

(listing goes on)
SMILES	A1 inhib	BJeLR viability
C[C@H]1CN([C@@H](C)CO)C(=O)c2cccc(NS(=O)(=O)c3cccs3)c2O[C@H]1CN(C)S(=O)(=O)c1ccccc1	nt	-2.9
CCN(CC)C(=O)Cc1ccc(Br)cc1	-0.1	3.4
O=C(NCCN1CCOCC1)C1CCC(Cn2c(=S)[nH]c3ccccc3c2=O)CC1 (stereo not given)	0.0	3.0
CC(C)NC(=O)N(C)C[C@H]1Oc2ccc(NC(=O)Cn3cnnn3)cc2C(=O)N([C@@H](C)CO)C[C@H]1C	0.4	4.5
C[C@H]1CN([C@@H](C)CO)C(=O)c2cc(NC(=O)CCN3CCOCC3)ccc2O[C@H]1CN(C)S(=O)(=O)c1ccc(F)cc1	1.7	-3.8
C=CCNC(=O)C1(O)c2ccccc2NC(=O)N1c1ccccc1 (stereo not given)	-0.8	2.2
C[C@H]1CN([C@@H](C)CO)C(=O)c2cccc(N(C)C)c2O[C@H]1CN(C)S(=O)(=O)c1ccc(F)cc1	nt	3.2
C[C@H](CO)N1C[C@H](C)[C@@H](CN(C)CC2CCCCC2)Oc2c(NC(=O)Nc3ccc4c(c3)OCO4)cccc2C1=O	nt	-3.1
O=C(NCc1ccccc1)c1cc(-c2ccco2)on1	nt	4.8
O=C(NCCc1ccccc1)c1ccc2c(c1)sc1nc(-c3ccccc3)cn12	-0.3	3.2
CC1C2CC(CC1(C)C)N(C(=O)c1ccc(N3C(=O)c4ccccc4C3=O)cc1)C2 (stereo not given)	0.7	4.4
CC(C)NC(=O)Nc1ccc2c(c1)C(=O)N([C@@H](C)CO)C[C@@H](C)[C@@H](CN(C)C(=O)Nc1ccc3c(c1)OCO3)O2	-0.3	-2.0

Rewritten with each value named: entries from further up
Molecule: O=C(NCc1ccccc1)c1cc(-c2ccco2)on1
- A1 inhib: nt
- BJeLR viability: 4.8

Molecule: CC1CCN(Cc2ccc(NC(=O)Nc3cccs3)cc2)CC1
- A1 inhib: -0.7
- BJeLR viability: 6.8

Molecule: CC(C)NC(=O)Nc1ccc2c(c1)C(=O)N([C@@H](C)CO)C[C@@H](C)[C@@H](CN(C)C(=O)Nc1ccc3c(c1)OCO3)O2
- A1 inhib: -0.3
- BJeLR viability: -2.0

Molecule: CCSc1nc2c(c(=O)n1CC)C1(CCCC1)Cc1ccccc1-2
- A1 inhib: 0.2
- BJeLR viability: 3.1

Additional compounds follow.
SMILES	A1 inhib	BJeLR viability
COc1ccc(S(=O)(=O)N(C)C[C@@H]2Oc3ccc(NC(=O)Cc4ccccc4)cc3C(=O)N([C@H](C)CO)C[C@@H]2C)cc1	0.1	-5.4
CCN(CC)C(=O)c1cc(-c2ccc(OC)c(OC)c2)on1	nt	-5.1
COc1ccc(/C=C/C(=O)O[C@@H]2[C@@H](OC(C)=O)[C@@H](OC(C)=O)[C@H](O[C@H]3[C@@H]4C=CO[C@@H](O[C@@H]5O[C@H](CO)[C@@H](O)[C@H](O)[C@H]5O)[C@@H]4[C@@]4(CO)O[C@@H]34)O[C@H]2C)cc1	-0.4	-7.8
C[C@H]1CN([C@@H](C)CO)C(=O)c2cccc(NC(=O)Nc3ccc(C(F)(F)F)cc3)c2O[C@H]1CN(C)Cc1ccc(C(=O)O)cc1	nt	-0.9
Cc1c(C)c(C)c2[nH]c(-c3ccc4c(c3)OCO4)nc2c1C	-0.3	3.3
COc1ccc(NC(=O)N(C)C[C@@H]2Oc3ccc(N(C)C)cc3C(=O)N([C@H](C)CO)C[C@H]2C)cc1	-0.4	-4.0
C[C@H]1CN([C@@H](C)CO)C(=O)c2cc(NC(=O)NC3CCCCC3)ccc2O[C@@H]1CN(C)S(=O)(=O)c1cccs1	0.7	-3.6
O=C(Cc1ccc(Cl)cc1)Nc1cccc(-c2nc3cc4ccccc4cc3[nH]2)c1	-5.7	13
NC(=O)C1C(=O)NC(c2ccccc2)=CC1c1ccc(Cl)cc1 (stereo not given)	nt	-4.0
COc1ccc(S(=O)(=O)N(C)C[C@H]2Oc3ccc(NC(=O)C4CCCCC4)cc3C(=O)N([C@H](C)CO)C[C@@H]2C)cc1	-0.8	-2.4
CCOC(=O)c1c(-c2ccccc2)oc2ccc(NS(=O)(=O)c3ccc(CC)cc3)cc12	1.1	-5.9
CCOC(=O)c1nnn2c1nc(N(Cc1ccccc1)Cc1ccccc1)c1ccccc12	-0.2	-2.2
Cn1c(=O)cc(OCC(=O)NCC2COc3ccccc3O2)c2ccccc21 (stereo not given)	nt	-4.2
Cc1ccc(-c2nc3ncccn3c2NC(=O)c2cccc(C(F)(F)F)c2)cc1	-0.2	-5.6
C[C@@H]1CN([C@@H](C)CO)C(=O)c2cccc(NS(=O)(=O)c3ccc(Cl)cc3)c2O[C@@H]1CN(C)Cc1ccc(-c2ccccc2)cc1	nt	-0.8
Clc1ccc(COC(Cn2ccnc2)c2ccc(Cl)cc2Cl)c(Cl)c1 (stereo not given)	-0.1&-0.4	1.8&0.6
CC(C)NC(=O)N(C)C[C@@H]1Oc2ccc(NC(=O)C3CCCCC3)cc2C(=O)N([C@H](C)CO)C[C@@H]1C	0.2	0.0
Cc1noc(C)c1NC(=O)N(C)C[C@H]1Oc2c(NC(=O)NC3CCCCC3)cccc2C(=O)N([C@@H](C)CO)C[C@H]1C	nt	-0.1
Cc1ccc(S(=O)(=O)Nc2cccc3c2O[C@H](CN(C)S(=O)(=O)c2cccs2)[C@H](C)CN([C@@H](C)CO)C3=O)cc1	nt	-2.0
C[C@H]1CN([C@@H](C)CO)C(=O)c2cc(NC(=O)C3CC3)ccc2O[C@H]1CN(C)S(=O)(=O)c1cn(C)cn1	-0.4	1.0
C[C@@H]1CN([C@H](C)CO)C(=O)c2cccc(NC(=O)C3CC3)c2O[C@H]1CN(C)S(=O)(=O)c1cccs1	nt	-8.6
CCN1C(=O)N/C(=C\c2cccn2-c2ccc(C(=O)O)cc2)C1=O	nt	2.4
Cc1nc2ccccc2c2oc(C(=O)NCCN(C)C3CCCCC3)cc12	nt	7.9
Cc1ccc2cc3cc(C(=O)NCCCN4CCCCCC4)sc3nc2c1	nt	7.3
CCn1c2ccccc2c2cc(CN3CCN(Cc4cccc(C)c4)CC3)ccc21	nt	-6.4
Clc1nc(NCCN2CCOCC2)nc(NC2CCCCC2)n1	0.2	0.3
COc1ccc(C2Oc3c(OC)cc(CCCO)cc3C2CO)cc1OC1OC(CO)C(O)C(O)C1O (stereo not given)	-0.2	-2.3
O=C(Nc1ccc(N2CCN(c3ccc(C(F)(F)F)cn3)CC2)nc1)c1cccs1	0.0	1.1
Cc1cccc(NC(=O)c2cccnc2)c1C	0.9	6.9
COc1ccc2c(c1OC)C(=O)OC2[C@H]1c2c(cc3c(c2OC)OCO3)CCN1C (stereo not given in full)	0.1	-1.0
CNc1nc2c(Cl)cc(Cl)cc2s1	-1.4	-2.3
O=C(CN1CCN(Cc2ccccc2)C1=O)NC1CCCCCCC1	nt	-1.3
COc1ccc(S(=O)(=O)Nc2ccc3c(c2)C(=O)N([C@@H](C)CO)C[C@H](C)[C@@H](CN(C)S(=O)(=O)c2ccc(F)cc2)O3)cc1	0.1	5.6
C[C@H]1CN([C@@H](C)CO)C(=O)c2cc(NS(=O)(=O)c3ccc(F)cc3)ccc2O[C@H]1CN(C)C	0.0	9.6
C[C@H](CO)N1C[C@H](C)[C@@H](CN(C)C(=O)NC2CCCCC2)Oc2c(NC(=O)Nc3cccc4ccccc34)cccc2C1=O	nt	15
COc1ccc(NC(=O)N(C)C[C@H]2Oc3c(NC(=O)Nc4ccccc4)cccc3C(=O)N([C@H](C)CO)C[C@@H]2C)cc1	nt	-3.3
C[C@H]1CN([C@@H](C)CO)C(=O)c2cccc(NC(=O)Nc3ccc4c(c3)OCO4)c2O[C@H]1CN(C)S(=O)(=O)c1ccc(F)cc1	nt	0.9
CCOC(=O)C1CCCN(Cc2ccccc2)C1 (stereo not given)	-0.2	-1.9
C[C@H](CO)N1C[C@H](C)[C@@H](CN(C)Cc2ccc(Oc3ccccc3)cc2)Oc2c(NC(=O)Nc3ccc4c(c3)OCO4)cccc2C1=O	nt	-7.6
COc1ccc(CN(C)C[C@@H]2Oc3c(NC(=O)Nc4ccc(F)cc4)cccc3C(=O)N([C@H](C)CO)C[C@H]2C)cc1	nt	0.2
